Screening data (PubChem BioAssay)
rRNA inh HTS = inhibits bacterial ribosomal RNA function over humanized ribosomes; E. coli WT GFP vs humanized-ribosome RFP mutants, fluorescence, 24 h; stronger effect = lower value; DMSO median 0, no signal -100; GFP signal change (wild-type ribosome), % (no concentration beside the values); 1.6% of 350,000 active; AID 720706;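 active means significant combined selectivity score with lowered wild-type GFP, culture density cut under 30%, mutant RFP and density less affected; inactive means any of these conditions unmet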; further: one replicate is shown; some compounds called inactive have numbers as strong as hits
MLL AF4-AF9 inh = inhibitors of human MLL-AF4/AF9 interaction. P42568. AlphaScreen, biotin-AF4 peptide binding to FLAG-AF9. inhibition, % at 10 µM. 0.47% of 350,000 active;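 active means every replicate reaching a set inhibition limit, whatever the replicate mean, cut at about 25% in these data; inconclusive means mean inhibition reaches that limit but some replicates miss it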;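 further: 0% = plate neutral control median and 100% = total signal loss; the record names both 10 and 1 µM as test concentration; the first replicate is given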
Target sequence (P42568 whole entry, looked up): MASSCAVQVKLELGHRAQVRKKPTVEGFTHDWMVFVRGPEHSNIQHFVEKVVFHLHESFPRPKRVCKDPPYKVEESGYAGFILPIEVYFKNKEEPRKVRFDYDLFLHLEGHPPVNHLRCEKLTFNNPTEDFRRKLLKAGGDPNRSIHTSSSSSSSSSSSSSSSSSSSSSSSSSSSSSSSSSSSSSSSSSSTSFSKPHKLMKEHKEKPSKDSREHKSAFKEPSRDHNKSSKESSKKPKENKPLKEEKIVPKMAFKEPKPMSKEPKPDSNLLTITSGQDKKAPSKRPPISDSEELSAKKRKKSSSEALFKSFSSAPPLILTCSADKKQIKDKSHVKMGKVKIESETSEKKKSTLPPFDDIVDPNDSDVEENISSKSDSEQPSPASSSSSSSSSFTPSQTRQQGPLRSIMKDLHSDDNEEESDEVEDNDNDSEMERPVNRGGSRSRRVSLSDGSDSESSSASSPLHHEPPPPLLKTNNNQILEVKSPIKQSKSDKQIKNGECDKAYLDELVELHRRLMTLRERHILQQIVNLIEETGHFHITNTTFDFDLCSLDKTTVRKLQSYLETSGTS
RanGTP-Impb inh = inhibitors of RanGTP-importin-beta interaction, primary screen, biochemical, FRET, CFP-Ran, YFP-importin-beta, homogeneous; cell-free CFP-Ran/YFP-importin-beta FRET ratio; 1.1% of 300,000 active; inhibition, % (no concentration beside the values);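 active means most replicates above 15%; inconclusive means exactly half above 15%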;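 further: 0% = DMSO wells and 100% = Ran loaded with GDP instead of GTP; wells of about 40 µL received 100 nL stock; the first replicate is given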
T cruzi inh = T. cruzi replication inhibition | T. cruzi beta-gal in NIH3T3, luminescence, 90 h | 1.4% of 300,000 active | inhibition, % (no concentration beside the values);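 active means mean inhibition across valid replicates above about 55%, limit read from the data; inconclusive means mean below that limit but half or more replicates reach it; inactive means mean below it, under half of replicates reach it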;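 further: signal also drops with host cell toxicity which is not excluded here; 0% = plate median of DMSO wells and 100% = zero luminescence signal; higher percent means less beta-gal luminescence so fewer parasites; stock transfer was 50 nL into about 50 µL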
ALR inh = blocks human ALR sulfhydryl oxidase activity | purified ALR, DTT oxidation, H2O2 HRP-luminol luminescence | inhibition, % (concentration not given with the values) | 3.8% of 290,000 active | AID 485317;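 active means mean and each replicate at 75% or more; inconclusive means only one of the two met; inactive means neither met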;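 further: stock transfer was 7.5 nL into about 7.5 µL; 0% = neutral wells and 100% = wells with inactivated enzyme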
Target sequence (P55789 whole entry, looked up): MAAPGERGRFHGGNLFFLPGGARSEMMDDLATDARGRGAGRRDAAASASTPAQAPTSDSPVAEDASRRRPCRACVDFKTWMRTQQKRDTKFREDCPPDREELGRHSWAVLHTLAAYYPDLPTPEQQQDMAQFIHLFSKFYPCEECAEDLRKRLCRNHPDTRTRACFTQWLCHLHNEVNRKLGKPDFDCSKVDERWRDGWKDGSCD
Calb FLC = C. albicans growth modulation with fluconazole; C. albicans CaCi-2 (fluconazole-resistant clinical isolate) + fluconazole, Alamar Blue growth, 48 h; 0.57% of 300,000 active; AID 1979; growth inhibition, % (no concentration beside the values);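 active means most replicates above 75%; inconclusive means exactly half above 75%; inactive means most below 75%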;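 further: all wells also contain fluconazole at 8 µg/ml as a sub-toxic cotreatment; 0% = median of DMSO wells and 100% = median of geldanamycin control wells; wells of about 8 µL received 7.5 nL stock; the first replicate is given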
Beta apoptosis = blocks beta cell apoptosis. INS-1E cytokine-induced death, ATP luminescence, 48 h; percent of positive-control rescue, neutral wells zero. protection from apoptosis, % (test concentration not listed). 0.8% of 300,000 active;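 active means all replicates at 75% or more, or half of them and the mean; inconclusive means half reach 75% but not the mean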;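 further: 0% = cytokine-treated negative control wells and 100% = positive control rescue; higher means more ATP so stronger rescue from cytokine killing; wells of about 40 µL received 100 nL stock; the first replicate is given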
FGF22 binding = shifts melting point of recombinant human FGF22. recombinant FGF22 thermal shift, SYPRO orange fluorescence; percent of sucrose octasulfate shift, DMSO zero. calls only at 9.99 µM. 1.5% of 340,000 active. AID 651658;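 active means melting point raised past a set limit in the mean and every replicate; inconclusive means no clear call; three in four hits are not shown here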
Target sequence (Q9HCT0 whole entry, looked up): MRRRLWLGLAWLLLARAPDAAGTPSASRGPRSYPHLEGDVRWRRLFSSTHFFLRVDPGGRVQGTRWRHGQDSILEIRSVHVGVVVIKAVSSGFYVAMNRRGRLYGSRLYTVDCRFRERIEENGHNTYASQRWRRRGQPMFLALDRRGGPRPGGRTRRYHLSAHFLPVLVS
rRNA inh HTS OD600 = second read-out of rRNA inh HTS, no call of its own (marks repeat the call); OD600 change, %; measured here: OD600 growth;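 optical density of the mix in the first replicate; 0 = DMSO median and -100 = no signal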
rRNA inh HTS RFP = also measured in rRNA inh HTS; calls as there; RFP signal change, %; measured here: RFP humanized mutant strains;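 first replicate; 0 = DMSO median and -100 = no signal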
* = called active by the depositor; i = inactive; ? = inconclusive; . = not tested or not shown.

Every second line gives: rRNA inh HTS	rRNA inh HTS OD600	rRNA inh HTS RFP	MLL AF4-AF9 inh	RanGTP-Impb inh	T cruzi inh	ALR inh	Calb FLC	Beta apoptosis	FGF22 binding
O=C(Nc1nc2ccc(S(=O)(=O)N3CCCCC3)cc2s1)c1ccncc1
→ .	.	.	.	-1.2	17	98*	103*	-1	.
Cc1cccc(N2CCN(CC(=O)NCc3ccccc3)CC2)c1C
→ -28	-27	-5.9	-3.2	1.5	7	3	2	4	i
O=C(CSc1ccc2c(c1)OCCO2)NCc1ccco1
→ .	.	.	.	-4.5	-2	98*	-1	-3	.
COc1ccc(-n2c(=O)c3ccccc3n(CC(=O)Nc3cccc(OC)c3)c2=O)cc1
→ 4	3	2.7	8.5	6.7	4	-3	-5	3	i
CC(C)[C@@H](NC(=O)C1CCN(C(=O)[C@@H]2CCCN2C(=O)OC(C)(C)C)CC1)C(=O)NCc1ccc(F)cc1
→ .	.	.	-2.1	8.8	6	.	-4	-3	i
O=c1oc(-c2cc3ccccc3o2)nc2sc3c(c12)CCCC3
→ -23*	1.2*	3.3*	3.5	4.4	-19	-8	15	5	i
COc1ccccc1NS(=O)(=O)N(C)C
→ .	.	.	.	-2.7	7	-4	-8	-5	.
COc1ccc(S(=O)(=O)N2CCCCC2)cc1NC(=O)c1cnc(C)cn1
→ 14	12	-1.0	-27	.	.	-4	.	2	i
COc1nc(C)ccc1-c1noc(-c2ccncc2)n1
→ .	.	.	.	5.1	4	22	-1	7	.
CC1=NN(c2ccc(C)c(C)c2)C(=O)C1C(c1cccc(O)c1)C1C(=O)N(c2ccc(C)c(C)c2)N=C1C (stereo not drawn)
→ .	.	.	.	-0.8	-4	-9	0	-6	.
O=C(COC(=O)/C=C/c1ccccc1[N+](=O)[O-])Nc1ccc(OCc2ccccc2)cc1
→ .	.	.	4.2	-1.3	-14	.	11	1	i
Cc1ccccc1C(=O)N(C)c1ccccc1C(=O)NCc1ccccc1
→ 14	14	4.3	-2.9	-1.7	0	-2	4	-6	i
O=C(O)CS(=O)CC(=O)Nc1cccc(C(F)(F)F)c1 (stereo not drawn)
→ 4	11	0.0	-4.3	?	-14	99*	-6	4	i
COc1cccc(/C=N/NC(=O)C[n+]2ccccc2)c1OC
→ .	.	.	.	0.0	-20	-5	-2	-2	.
CCOC(=O)c1c(C)oc2cc(Sc3ccccc3)c(O)c(O)c12
→ .	.	.	-5.4	-4.5	19	-12	7	-8	i
CN(C)c1ccc(NC(=S)N2CCN(c3ncc(C(F)(F)F)cc3Cl)CC2)cc1
→ -9	-5	-2.5	2.4	2.7	-26	52	2	-2	i
COc1ccc(-c2nnc(SCc3cccc(C)c3)n2N)cc1
→ .	.	.	.	-3.6	-8	-7	-8	2	.
N=c1sc2ccccc2n1-c1ccccc1
→ -3	-3	1.6	-9.0	35*	10	-8	3	-1	i
CC(C)=NOc1nc(N(C)C)nc(N(C)C)n1
→ .	.	.	.	3.6	-3	-5	32	0	.
COC(=O)c1ccc(Cn2cc(C(F)(F)F)ccc2=O)cc1
→ 6	8	-2.2	-4.4	0.3	-15	-4	-2	-1	i
O=C(COC(=O)/C=C/c1ccccc1)NCCc1ccc(F)cc1
→ -4	-9	3.2	-1.1	.	.	2	.	-7	i
CC[C@@]1(C(=O)OC)N[C@H](CN(C)C(=O)Nc2ccc(OC)cc2)[C@@H]2C(=O)N(C)C(=O)[C@@H]21
→ 7	9	-0.8	0.1	.	.	.	.	1	i
Cc1ccc(S(=O)(=O)CNC(=S)c2ccc3ccccc3c2)cc1
→ -24*	0.0*	2.9*	0.3	0.1	-23	-3	0	-9	i
CN(CC1CCCN(CCc2ccc(Cl)cc2)C1)C(=O)c1ccco1 (stereo not drawn)
→ 11	6	-0.1	4.4	6.5	-7	0	-11	-2	i
Cc1cccc(NC(=S)N(CCN(C)C)Cc2cc3cc(C)cc(C)c3[nH]c2=O)c1
→ .	.	.	.	-2.1	13	5	-1	0	.
CCOc1ccc(-n2c(SCc3ccc([N+](=O)[O-])cc3)nnc2-c2ccccc2)cc1
→ .	.	.	.	5.0	54	.	0	17	.
CN(C1CCCCC1)S(=O)(=O)c1ccc2c(c1)c(=O)c(C(=O)NCCN1CCCC1)cn2C
→ 1	8	4.0	3.1	4.7	-9	-26	11	0	i
Cc1c(C(=O)N2CCc3ccccc3C2)oc2ccccc12
→ -29	-42	-2.5	-5.6	0.3	17	4	-25	-3	i
CC(=O)N1N=C(c2ccco2)CC1c1ccco1 (stereo not drawn)
→ 3	8	5.6	1.9	-1.1	8	12	18	-8	i
CC(=O)c1cc2c(cc1N(C(=O)c1ccco1)C(C(=O)NC1CCCC1)c1ccccc1F)OCO2 (stereo not drawn)
→ 5	9	1.2	2.6	0.1	8	.	-1	3	i

Every second line gives: rRNA inh HTS	rRNA inh HTS OD600	rRNA inh HTS RFP	MLL AF4-AF9 inh	RanGTP-Impb inh	T cruzi inh	ALR inh	Calb FLC	Beta apoptosis	FGF22 binding
O=C(Nc1cccnc1)c1ccc([N+](=O)[O-])o1
→ -19*	12*	-3.0*	0.1	-1.6	19	-49	7	-32	i
COc1ccc(C(=O)N2CCC3(CC2)NCCc2[nH]cnc23)cc1OC
→ 3	0	-4.4	2.4	-2.8	-3	-39	-10	-1	i
CCOc1cc(/C=N/NC(=O)C2CCCC2)ccc1OC(C)C
→ 5	25	0.3	0.0	1.1	0	-22	-2	-6	i
Cc1nc2nc(C)c(NS(=O)(=O)c3ccc(C(C)(C)C)cc3)c(=O)n2[nH]1
→ 3	11	1.3	0.1	2.8	-15	15	-5	0	i
N#CCCN(C(=O)COC(=O)CNS(=O)(=O)c1ccc2ccccc2c1)c1ccccc1
→ .	.	.	-4.8	.	.	-3	.	0	i
C[C@@H](C(=O)Nc1ccc(OC(F)F)c(Cl)c1)N1C(=O)C2CC=CCC2C1=O (stereo partly drawn)
→ -33	-49	-11	-2.6	.	.	-2	.	4	i
Cc1ccc(C(=O)NC(=S)Nc2ccc3[nH]c(=O)[nH]c3c2)cc1C
→ 22	12	-6.9	-2.7	-5.9	-28	-18	-7	-5	i
CC(=O)Nc1cccc(NC(=O)CN2c3cccc4cccc(c34)S2(=O)=O)c1
→ -12	-17	-1.6	-4.1	.	.	-10	.	7	i
CCC(=O)N1CCN(c2ccc(NC(=O)COc3cccc(C)c3C)cc2)CC1
→ -6	-4	-4.3	-1.4	3.6	-4	3	25	2	i
O=C(COC(=O)C1CCN(S(=O)(=O)c2ccc3c(c2)OCCO3)CC1)Nc1ccccc1OC(F)F
→ .	.	.	.	-0.5	2	-1	-1	-11	.
O=C(Cc1ccc(S(=O)(=O)N2CCOCC2)s1)NCCOc1ccccc1
→ -2	-3	1.9	-1.8	4.8	-2	1	0	-3	i
COc1cc(/C=N/O)ccc1OCc1ccccc1Cl
→ -24	-22	-1.0	-0.3	6.0	-3	0	11	-3	i
O=C(O)c1ccccc1C(=O)Nc1nc(-c2ccccc2)cs1
→ 4	-3	-2.7	-12	-0.5	-5	-6	-1	4	i
CCOc1ccccc1OCCCC(=O)OCC(=O)Nc1cccc(Cl)c1
→ .	.	.	.	2.0	5	-2	-19	3	.
O=C(NC1CCCC1)c1ccc(CS(=O)Cc2ccc(Cl)cc2)o1 (stereo not drawn)
→ -3	2	-1.5	0.0	-1.5	-3	0	?	-4	i
CC(C)C(NC(=O)c1ccccc1NC(=O)c1ccco1)C(=O)NNC(=O)c1ccncc1 (stereo not drawn)
→ 3	2	1.8	-1.0	1.6	-22	7	-4	-4	i
Nc1nc(N)c(C=Nc2ccc(Br)cc2)c(Nc2ccc(Br)cc2)n1
→ -25*	-16*	-3.4*	-9.2	5.5	-3	3	6	-12	i
CCCn1c(NC(=O)CCS(=O)(=O)c2ccc(C)cc2)nc2ccccc21
→ 8	2	7.6	0.4	.	39	0	7	-5	i
CCN(CC)C(=O)CNC(=O)c1nn(-c2ccc(OC)c(Cl)c2)c(=O)c2ccccc12
→ 2	-4	2.2	4.2	-3.7	-10	0	15	9	i
CCN(CC)S(=O)(=O)c1ccc2oc(SCC(=O)NC3CC3)nc2c1
→ 18	9	-1.4	1.3	0.5	7	-12	-6	-2	.
CC(=Nc1ccccc1)c1sc2ccccc2c1O
→ -3	4	5.2	26*	48*	26	23	7	-4	i
CCS(=O)(=O)Nc1cccc(C2=NN(S(=O)(=O)CC)C(c3ccccc3)C2)c1 (stereo not drawn)
→ 2	-1	4.4	0.5	-3.4	0	-5	-5	1	i
COc1ccccc1CCC(=O)N(Cc1ccccc1)c1c(N)n(Cc2ccccc2)c(=O)[nH]c1=O
→ -2	-18	0.2	-2.0	-4.4	8	0	2	-5	i
CCn1c(SCC(=O)Nc2nonc2C)nnc1-c1ccoc1C
→ .	.	.	.	2.5	5	-17	-7	-1	.
CCn1c(=O)n(CC)c2cc(N3CCCC3)c(NC(=O)c3ccc(C)cc3)cc21
→ -6	-1	12	-0.2	-2.6	-14	99*	1	3	i
Cc1ccc(NC(=O)CS(=O)CC(=O)NC(C)CCc2ccco2)cc1Cl (stereo not drawn)
→ 3	2	3.3	.	1.4	.	-1	19	-6	.
O=CN1CCc2scc[n+]2-c2ccccc21
→ .	.	.	.	4.4	-10	44	-15	-2	.
CCOc1ccc(OCCCCn2cnc3ccccc3c2=O)cc1
→ 3	4	0.9	-0.9	-2.9	10	2	1	1	i
CC1CN(C(=O)c2ccc(S(=O)(=O)Nc3cccc(C(F)(F)F)c3)cc2)CC(C)O1 (stereo not drawn)
→ -1	6	-1.8	4.2	0.3	2	2	-1	6	i
O=C(Nc1ccccc1)C12CC3CC(C1)CC(n1cnc([N+](=O)[O-])n1)(C3)C2
→ .	.	.	.	1.8	55*	-17	3	6	.

This is a subset. The share of hits here may be higher or lower than overall.
